Bioassay records deposited in PubChem BioAssay by several laboratories.
HIV Env fusion – inhibitors of HIV Env-mediated cell fusion | HeLa-JRFL Env/CEM21 cell fusion, luciferase | inhibition, % at 12.3 µM | 360,000 tested, 1.1% active | AID 651610;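 active = mean replicate inhibition score of at least 50 and every replicate individually at or above 50; inconclusive = only one of the two criteria met; inactive = mean below 50 and not all replicates reaching 50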;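 note: 0% = plate neutral controls and 100% = maraviroc near 300 nM; one replicate is shown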
CSC inhib – blocks cancer stem cells. cancer stem cell-like cells viability, luminescence. inhibition, % at 7.5 µM. 300,000 tested, 1.1% active. AID 2717;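 active = mean at 75% or more and at least half the replicates too; inconclusive = mean and replicates disagree; tested in HMLE shEcad cells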;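 note: 0% = median of negative and 100% = median of positive control wells; the first replicate is given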
PABP polyA inh – PABP-poly(A) binding inhibition. P11940. PABP-poly(A) RNA binding, fluorescence polarization. inhibition, % at 35 µM. 290,000 tested, 1% active;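 active = 50% or more with normal probe brightness, or confirmed in later tests; inconclusive = above 50% with abnormal brightness, or retests that disagree; inactive = below 50% or failed in later tests; about a fifth of its hits are not listed in these tables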;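 note: calls also rest on retests at 20 µM and on dose response follow-up; controls were probe without protein and protein plus probe with vehicle; some compounds called inactive have numbers as strong as hits; many hits fall short of the cut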
Target sequence (P11940 whole entry, looked up): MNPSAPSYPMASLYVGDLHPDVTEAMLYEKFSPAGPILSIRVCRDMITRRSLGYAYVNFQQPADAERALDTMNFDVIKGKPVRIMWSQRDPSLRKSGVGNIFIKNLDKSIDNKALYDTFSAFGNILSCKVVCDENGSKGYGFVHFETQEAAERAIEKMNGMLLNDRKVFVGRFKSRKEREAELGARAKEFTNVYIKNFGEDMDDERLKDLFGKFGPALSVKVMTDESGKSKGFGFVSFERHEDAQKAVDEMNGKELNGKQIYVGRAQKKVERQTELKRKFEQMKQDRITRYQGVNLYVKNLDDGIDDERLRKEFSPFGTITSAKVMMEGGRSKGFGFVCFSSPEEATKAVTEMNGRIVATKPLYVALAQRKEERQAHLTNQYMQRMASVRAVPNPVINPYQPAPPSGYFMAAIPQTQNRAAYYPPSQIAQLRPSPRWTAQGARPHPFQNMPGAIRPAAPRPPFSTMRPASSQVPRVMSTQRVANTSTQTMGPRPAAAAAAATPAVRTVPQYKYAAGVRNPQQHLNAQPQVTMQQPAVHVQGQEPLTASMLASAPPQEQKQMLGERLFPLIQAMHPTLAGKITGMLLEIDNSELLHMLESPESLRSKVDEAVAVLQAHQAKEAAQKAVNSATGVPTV
MT1-MMP act inh – MT1-MMP (human) activation inhibition | P50281 | HT1080 RFP-PRO-GFP cells, GFP/RFP ratio fluorescence, overnight; percent of plate control window, DMSO zero | AID 651647 | 360,000 tested, 0.061% active | GFP/RFP ratio change, % at 20 µM;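 active = GFP/RFP ratio change of at least 30% with cell ATP level not reduced by more than half and red fluorescence within 50% of control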; note: strong numbers were not always called active
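Assay system: HT1080 RFP-PRO-GFP cells | Dosing: 20 µM single dose, 1% DMSO | Incubation: Cells overnight before dosing, compound overnight, 37 °C, 5% CO2 | Evaluation: GFP/RFP fluorescence ratio | Control set: DMSO-only wells and HT1080 RFP-L50D-GFP cell wells as references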
Rce1 inh – inhibitors of yeast Ras-converting enzyme; Q03530; yeast membranes, quenched prenylated peptide cleavage fluorescence; calls only; 290,000 tested, 0.27% active;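 active = fall in fluorescence gain of 50% or more versus controls, with final raw signal at or below 3038400; inconclusive = same 50% fall but final raw signal above 3038400; inactive = fall in fluorescence gain under 50%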;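 note: plate controls were neutral control wells for no effect and wells lacking membranes for full effect; tested at 10 µM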
eIF4H FP inh – inhibitors of RNA binding by human eIF4H; eIF4H fluorescence polarization binding assay; inhibition, % at 35 µM; 290,000 tested, 0.94% active;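 active = 50% or more with normal probe brightness, or confirmed in later tests; inconclusive = above 50% with abnormal brightness, or retests that disagree; inactive = below 50% or failed in later tests; about a fifth of its hits are not listed in these tables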;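 note: calls also rest on retests at 20 µM and on dose response follow-up; 0% = protein and probe with vehicle and 100% = probe without protein; strong numbers were not always called active; many hits fall short of the cut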
UUG fidelity – alters start codon recognition fidelity in yeast. S. cerevisiae UUG-firefly luciferase reporter, luminescence/redox ratio. activity score, % at 18.7 µM. 350,000 tested, 0.13% active;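 active = replicate mean at a twofold rise or more, about +100% in these data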;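 note: firefly luciferase made from a UUG start codon reports start codon fidelity; reporter light over untreated wells divided by growth signal over untreated wells; some hits fall short of that in this replicate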
eIF4H FP inh retest – further read-out of eIF4H FP inh, marked with its call; inhibition, %; compound at 20 µM; confirmation average;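 mean of two retest wells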
PABP polyA inh retest – recorded beside PABP polyA inh, whose call it bears; inhibition, %; compound at 20 µM; confirmation repeats;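 mean of two retest wells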
MT1-MMP act inh RFP – further read-out of MT1-MMP act inh, marked with its call; RFP signal change, %; measured here: RFP expression control read;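 0 = vehicle wells; hits needed this value within 50% of zero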
Active calls of the source: *; i = inactive; ? = inconclusive; nt = not tested or not shown.

SMILES	HIV Env fusion	CSC inhib	PABP polyA inh	MT1-MMP act inh	MT1-MMP act inh RFP	Rce1 inh	eIF4H FP inh	UUG fidelity	others
Cc1cc2nc(C3CCCCC3)c(CC(C)(C)C)n2c(C)c1Br	-11.1	nt	nt	0.3	-3.5	nt	nt	-4.0
CN1CCN(C(=S)NC(=O)/C=C/c2cccs2)CC1	5.8	-8.3	-5.1	-3.6	-1.0	i	-1.6	nt
COc1cc(NC(=O)c2ccco2)c(C(=O)O)cc1OC	-47.9	-5.2	-20.6	15.5	5.1	i	-0.3	4.6
CCCCN(CCCC)c1nc(-c2ccncc2)nc2ccccc12	33.5	101.1*	-8.7	-6.2	-8.5	i	-7.4	nt
Cc1cc(C)cc(Cn2c3ccc(NC(=O)NCc4ccccc4)cc3c(=O)n2C)c1	-0.7	nt	nt	13.2	0.9	nt	nt	-3.3
O=C(Nc1cccc(C(=O)N2CCOCC2)c1)C1CC1	-18.0	nt	nt	1.1	1.7	nt	nt	-20.2
Cc1ccc(C2(C)NC(=O)N(CC(=O)NC(=O)NC(C)(C)C)C2=O)cc1 (centres undefined)	11.2	-4.4	1.9	-1.5	3.0	i	-7.8	-15.5
O=C(CSc1ncnc2sc3c(c12)CCC3)N1CCOCC1	-14.0	-12.5	30.6	1.2	1.5	i	62.1*	nt	eIF4H FP inh retest=76.7*;PABP polyA inh retest=48.4
O=S(=O)(NOCc1ccc(Cl)cc1)c1ccc(Cl)cc1	4.1	nt	3.1	-2.1	-1.5	i	-4.3	-25.2
CC1=C(C(=O)OC(C)(C)C)C(c2cccc3ccccc23)NC(=O)N1 (centres undefined)	20.1	-2.7	4.1	2.2	-1.2	i	-2.2	-15.1
CCCOc1ccc(S(=O)(=O)n2cc(Br)c(=O)[nH]c2=O)cc1	nt	-1.5	4.9	2.5	2.8	i	3.9	-11.5
O=C(O)CC1(CC(=O)Nc2ccccc2C(=O)c2ccccc2)CCCC1	23.8	2.7	23.1	-1.2	2.1	i	-1.8	nt
COc1cccc(N(CC(=O)NCCSc2ccccn2)S(=O)(=O)c2ccccc2)c1	25.8	nt	1.5	2.3	-1.8	i	7.9	-5.1
CN1CCN(S(=O)(=O)c2cccc(C(=O)Nc3ccccc3N3CCCC3)c2)CC1	2.7	-4.4	5.2	0.2	2.9	i	-11.3	-13.4
Cc1cc(C)nc(NS(=O)(=O)c2ccc(NC(=S)NC(=O)CC(C)C)cc2)n1	-179.5	-3.9	-1.4	8.5	7.8	i	-4.0	-0.4
Cc1noc(COc2ccc(OCc3nc(C)no3)cc2)n1	nt	-11.9	0.2	0.0	3.1	i	2.1	-6.7
C=CCN1CC(O)=C(c2ccccc2)C1=N	-41.2	-2.2	-1.9	4.5	1.8	i	-2.8	-3.5
O=C(O)c1cc(-c2cccs2)nc2cc3c(cc12)OCCO3	-12.7	-9.1	-17.6	-2.5	5.5	i	-2.9	0.8
O=C(/C=C/c1ccc([N+](=O)[O-])cc1)NCc1cccnc1	nt	-14.1	-2.5	-0.5	-1.4	i	-8.6	nt
NC(=O)c1ccc(NC(=O)COC(=O)/C=C/c2cccs2)cc1	-25.9	1.6	3.0	-2.4	2.1	i	3.1	nt
CCN(CC(=O)Nc1ccc2c(c1)OCCO2)c1nc(-c2cccnc2)nc2ccccc12	6.6	-7.3	-6.9	2.7	7.7	i	-0.1	6.6
c1ccc2[nH]cnc2c1	nt	-0.6	nt	3.5	3.2	i	nt	-29.7
COc1ccc(CN2CCN(c3ccccc3OC)CC2)c(OC)c1	5.5	7.9	-1.4	-5.0	-2.3	i	19.7	-0.9
CCOC(=O)CSC(CC)C(=O)Nc1nnc(CC)s1 (centres undefined)	-2.0	-11.5	8.4	5.5	-2.0	i	-3.9	-0.4
O=c1c(-c2ccco2)[n+]([O-])c2ccccc2n1OCc1ccccc1F	-152.3	-12.9	30.8	9.3	-8.5	i	17.1	-14.1

The listing continues.
SMILES	HIV Env fusion	CSC inhib	PABP polyA inh	MT1-MMP act inh	MT1-MMP act inh RFP	Rce1 inh	eIF4H FP inh	UUG fidelity	others
CCOc1ccc(Oc2c(/C=N/NC(C)=O)c(C)nn2-c2ccccc2)cc1	1.5	nt	-24.9	-7.1	-4.2	i	2.5	-2.1
CCC(C(=O)NCc1ccco1)N(C(=O)CNS(=O)(=O)c1ccc(C)cc1)c1ccccc1F (centres undefined)	21.6	nt	-5.3	0.5	3.0	i	-4.3	7.8
COc1cccc(OC)c1C(=O)OCC(=O)NCC1CCCCC1	23.0	nt	nt	-2.0	-0.5	nt	nt	3.2
Cc1ccc(-n2ncc3c(NCc4ccco4)ncnc32)c(C)c1	4.7	4.4	2.9	-1.7	-1.4	nt	-0.2	-11.2
c1ccc(-c2cn3c(n2)CCc2ccc4cccnc4c2-3)cc1	-1.4	9.5	9.5	6.5	1.1	i	23.6	-11.6
[N-]=[N+]=CC(=O)C(O)(c1ccccc1)C(Cl)c1ccccc1 (centres undefined)	15.1	-10.0	nt	5.1	3.5	i	nt	12.4
Cc1[nH]c(C)c(S(=O)(=O)NCc2ccc(Cl)cc2)c1C(=O)N1CCCC1	9.4	-0.6	4.4	-2.3	-3.4	i	-6.0	-7.7
Cc1c(Cl)c(C(=O)NNC(=S)NCc2ccco2)nn1C	-15.2	-14.7	6.2	11.3	-2.4	i	-3.1	-14.5
Cc1csc(SCC(=O)N(c2ccccc2)C(C)C)n1	1.9	nt	nt	6.5	3.9	nt	nt	-18.2
CCN(CC)CCCNC(=O)c1cn(C)c2ccc(S(=O)(=O)N(C)C)cc2c1=O	-0.1	nt	7.8	2.7	5.7	i	5.8	5.2
Cc1ccc(-c2nnn(CC(=O)N3CCCCC3)n2)cc1	-22.1	7.1	-2.8	0.7	1.5	i	-9.9	-14.0
COc1cc(CCC(=O)Nc2cccc(C(F)(F)F)c2)cc(OC)c1OC	18.2	6.5	-2.9	2.1	4.5	i	1.7	nt
O=C(CCNS(=O)(=O)c1ccc(Cl)cc1)Nc1ccncc1	-0.2	9.1	2.4	2.3	2.2	i	-1.9	-6.7
C/C(=N/NC(=O)CNC(=O)c1ccccn1)c1ccccc1	-5.8	5.6	-9.8	-2.7	1.7	i	1.0	nt
O=C(O)CCC(NS(=O)(=O)c1ccc(-c2ccccc2)cc1)C(=O)O (centres undefined)	-10.3	6.4	0.7	3.0	3.6	i	-3.8	-4.7
CCOC(=O)N1CCC2(CC1)C(C#N)=C(N)Oc1c2c(C)nn1-c1cccc(Cl)c1	nt	22.2	71.7*	-0.7	-3.3	i	71.4*	-16.2
Cc1ccc(CN(Cc2ccccc2)C(=S)NCC(=O)NCc2cccnc2)o1	-9.7	4.6	2.2	-4.2	-6.7	i	-7.1	-3.1
COc1ccccc1CNC(=O)C(Cc1ccccc1)NC(=O)c1ccccc1 (centres undefined)	-15.9	-8.9	nt	-2.0	-3.4	nt	nt	-13.3
COc1ccc(NC(=O)CSc2nc(C)cc(C)n2)cc1	nt	-3.1	-5.5	3.8	1.1	i	-2.2	nt
O=C(c1ccco1)N1CCN(c2ncnc3scc(-c4ccc(F)cc4)c23)CC1	-13.7	6.7	6.8	5.1	-2.2	i	0.2	-12.6
O=C(CSc1ccc(Cl)cc1)NC1=NN(c2ccccc2)C(=O)C1	nt	-3.3	2.0	4.9	0.4	i	-10.0	-5.2
O=C(NCc1cccnc1)c1cccc(S(=O)(=O)N2CCCC2)c1	7.5	-3.3	13.9	-1.1	-4.8	i	-0.1	-14.3
COc1ccc(Br)cc1CN(C)C(=O)c1ccccc1OCc1c(C)noc1C	5.0	nt	nt	-4.1	-1.9	i	nt	-12.3
COCc1cccc(C(=O)NC(c2ccccc2)c2ccccc2)c1	-14.5	-27.3	4.5	-5.9	-2.3	i	-4.8	-17.2
CN(C)CCCN(C(=O)c1ccc2c(c1)OCCO2)c1nc2cc3c(cc2s1)OCO3	2.2	-6.7	1.8	-5.4	-1.4	i	1.3	-20.5

(further entries)
SMILES	HIV Env fusion	CSC inhib	PABP polyA inh	MT1-MMP act inh	MT1-MMP act inh RFP	Rce1 inh	eIF4H FP inh	UUG fidelity	others
Cc1cc(SCC(=O)NCC2CCCO2)nc2ccccc12 (centres undefined)	nt	-37.4	?	-50.8	8.0	i	?	146.0*
CCCn1cc(CN2CCC(Cc3ccccc3)(C(=O)OCC)CC2)c(C)n1	-8.9	13.8	-0.9	-1.2	2.9	i	-4.7	-21.7
O=C1NC(=S)SC1=Cc1ccccc1Br	-37.7	nt	nt	0.6	-5.6	nt	nt	-14.7
CCOC(=O)N1CCN(S(=O)(=O)c2ccc(OCC(=O)OC)c(C)c2)CC1	-55.8	-12.6	-7.9	3.8	2.7	i	1.2	nt
COc1ccc(C(=O)c2ccc([N+](=O)[O-])cc2)c(OC)c1OC	-2.7	nt	nt	0.2	2.6	nt	nt	-11.5
CCOC(=O)N1CCN(CC(=O)Nc2ccc(OC)cc2)CC1	-73.3	-6.3	0.7	1.0	5.6	i	-3.7	-19.3
COc1cc(C(=O)Nc2nnc(C(F)(F)F)s2)c([N+](=O)[O-])cc1OC	1.6	-11.7	-3.5	5.8	3.8	i	-2.4	-13.9
O=C(CCc1nc2ccccc2c(=O)[nH]1)Nc1cccc(S(=O)(=O)N2CCOCC2)c1	-0.9	-7.0	nt	-0.9	2.0	i	nt	-4.5
O=C(/C=C/c1ccccc1Cl)N(Cc1ccccc1)C1CCS(=O)(=O)C1 (centres undefined)	12.8	0.9	-2.5	-0.8	-2.5	i	-5.8	nt
Cc1ccc(S(=O)(=O)N2CCCCC2)cc1NC(=O)c1cc(F)c(F)c(F)c1F	-0.6	-5.9	nt	-1.1	3.4	nt	nt	-13.2
Cc1cccn2c(=O)nc(SCC(=O)N3N=C(c4cccs4)CC3c3ccc(F)cc3)nc12 (centres undefined)	25.3	nt	nt	-7.1	-9.7	i	nt	nt
CC(C)N(C(=O)[C@H]1C[C@H](CC(=O)NCCN2CCOCC2)C(=O)N2CCc3c([nH]c4cc(CCC(=O)N(C)C)ccc34)[C@]12C)C(C)C	13.1	nt	nt	3.2	8.6	nt	nt	10.5
CN(C(=O)c1ccncc1)c1ccccc1	3.1	-10.3	3.7	-0.3	-0.1	i	-4.8	nt
COc1ccc(C(=O)N(C)Cc2cnn(Cc3ccccc3)c2)cc1S(=O)(=O)N1CCOCC1	nt	44.6	nt	6.2	-7.3	nt	nt	-6.2
Cc1cccc(NC(=O)c2ccc3nccnc3c2)n1	-21.5	3.1	-3.4	0.0	4.2	i	17.4	-36.1
CC(C)NC(=O)CSc1nc2sccc2c(=O)n1-c1ccccc1	2.6	-7.4	4.3	12.2	-1.0	i	10.0	-22.2
COCCNC(=S)NCc1ccc2[nH]c3c(c2c1)CCCC3	1.5	-0.7	4.8	5.4	-0.2	i	5.0	-18.0
Cn1nccc1NC(=O)COCC(=O)O	0.2	-15.3	12.7	-2.0	-3.7	i	-3.6	nt
O=C(NCc1ccc(Cl)cc1)c1cc([N+](=O)[O-])ccc1Cl	-8.2	-2.6	-5.3	-3.7	-3.3	i	-12.7	nt

Quoted at random: 2 records from the list, in no set order.
SMILES	HIV Env fusion	CSC inhib	PABP polyA inh	MT1-MMP act inh	MT1-MMP act inh RFP	Rce1 inh	eIF4H FP inh	UUG fidelity	others
CCCOc1ccc(S(=O)(=O)n2cc(Br)c(=O)[nH]c2=O)cc1	nt	-1.5	4.9	2.5	2.8	i	3.9	-11.5
Cc1ccc(S(=O)(=O)N2CCCCC2)cc1NC(=O)c1cc(F)c(F)c(F)c1F	-0.6	-5.9	nt	-1.1	3.4	nt	nt	-13.2
